Source: PubChem BioAssay
A1 inh = inhibitors of the anti-apoptotic protein A1, read as caspase activation; MEF A1-2A-BIM cells, Caspase-Glo 3/7 luminescence, 3 h; percent of clofoctol response, vehicle zero; actives 0.066% (n = 330,000); caspase activation, % (concentration not given with the values);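 active = over half of replicate activation scores above 10%, or exactly half above 10 with the replicate mean above 10; inconclusive = replicate mean below 10 yet half the replicates above 10; inactive = over half of replicates below 10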;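 also: wells of about 30 µL received 50 nL stock; many hits fall short of the cut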
B2AR ag = agonists of human beta-2 adrenergic receptor inducing internalization; actives 0.43% (n = 340,000); response, % (test concentration not listed); AID 504454; Am2.2-beta2AR cells, FAP receptor internalization, flow cytometry; reference of the scale not given here; P07550;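 active = response above a set limit, near 3 SD of response in nonfluorescent compounds, cut at about 42% in these data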;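 also: stock transfer was 100 nL into about 11 µL; a reference agonist was the positive control; negative values mostly stem from fluorescent compounds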
Vif TR-FRET = inhibitors of Vif binding to APOBEC3G peptide, primary screen, biochemical, TR-FRET, GST-Vif 1-94, biotin-A3G peptide, dose response retest (AID 1117319) | TR-FRET GST-Vif / biotin-A3G peptide binding; higher % means a stronger effect; test concentration not given here; strong numbers were not always called active | inhibition, %; hits with a dose series show IC50 in µM | actives 0.57% (n = 260,000);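 active = above the screen mean plus three standard deviations and confirmed in dose response; inconclusive = results disagree or hit not tested in dose response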;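 also: Vif residues 1-94 fused to GST binding biotinylated APOBEC3G peptide 110-148; 0% = full assay without inhibitor and 100% = GST in place of GST-Vif; retest series ran down from 100 µM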
UCH37 inh = inhibitors of human deubiquitinating enzyme UCH37; Q9Y5K5; purified proteasome/UCH37, Ub-AMC cleavage fluorescence; inhibition, % (test concentration not listed); actives 0.33% (n = 330,000);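 active = mean of two replicates above 20%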;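 also: 0% = compound-free wells with enzyme and 100% = wells lacking proteasome; stock transfer was 100 nL into about 20 µL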
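Signal – fluorescence, ex 355 nm, em 460 nm · System – Proteasome-bound UCH37 · Input – 0.15 nM proteasome as dispensed · Timing – 30 min preincubation with enzyme, 25 min cleavage at room temperature · Read-out basis – percent inhibition of cleavage signal versus uninhibited and no-proteasome wells · Medium – Tris-HCl pH 7.4 with ATP-MgCl2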
LANA-H2A inh = blocks KSHV LANA binding to histone H2A/H2B | Q9QR71 | cell-free LANA-H2A/H2B peptide, fluorescence polarization | inhibition, % (no concentration beside the values) | actives 0.6% (n = 320,000); in the data active = inhibition mostly above about 10%, no sharp cut-off; inactive = mostly below about 6.7%;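 also: stock transfer was 7.5 nL into about 10 µL; 0% = median of vehicle wells and 100% = median of positive control wells; one replicate is shown; the record names a cut of 25% in any replicate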
Target sequence (Q9QR71 whole entry, looked up): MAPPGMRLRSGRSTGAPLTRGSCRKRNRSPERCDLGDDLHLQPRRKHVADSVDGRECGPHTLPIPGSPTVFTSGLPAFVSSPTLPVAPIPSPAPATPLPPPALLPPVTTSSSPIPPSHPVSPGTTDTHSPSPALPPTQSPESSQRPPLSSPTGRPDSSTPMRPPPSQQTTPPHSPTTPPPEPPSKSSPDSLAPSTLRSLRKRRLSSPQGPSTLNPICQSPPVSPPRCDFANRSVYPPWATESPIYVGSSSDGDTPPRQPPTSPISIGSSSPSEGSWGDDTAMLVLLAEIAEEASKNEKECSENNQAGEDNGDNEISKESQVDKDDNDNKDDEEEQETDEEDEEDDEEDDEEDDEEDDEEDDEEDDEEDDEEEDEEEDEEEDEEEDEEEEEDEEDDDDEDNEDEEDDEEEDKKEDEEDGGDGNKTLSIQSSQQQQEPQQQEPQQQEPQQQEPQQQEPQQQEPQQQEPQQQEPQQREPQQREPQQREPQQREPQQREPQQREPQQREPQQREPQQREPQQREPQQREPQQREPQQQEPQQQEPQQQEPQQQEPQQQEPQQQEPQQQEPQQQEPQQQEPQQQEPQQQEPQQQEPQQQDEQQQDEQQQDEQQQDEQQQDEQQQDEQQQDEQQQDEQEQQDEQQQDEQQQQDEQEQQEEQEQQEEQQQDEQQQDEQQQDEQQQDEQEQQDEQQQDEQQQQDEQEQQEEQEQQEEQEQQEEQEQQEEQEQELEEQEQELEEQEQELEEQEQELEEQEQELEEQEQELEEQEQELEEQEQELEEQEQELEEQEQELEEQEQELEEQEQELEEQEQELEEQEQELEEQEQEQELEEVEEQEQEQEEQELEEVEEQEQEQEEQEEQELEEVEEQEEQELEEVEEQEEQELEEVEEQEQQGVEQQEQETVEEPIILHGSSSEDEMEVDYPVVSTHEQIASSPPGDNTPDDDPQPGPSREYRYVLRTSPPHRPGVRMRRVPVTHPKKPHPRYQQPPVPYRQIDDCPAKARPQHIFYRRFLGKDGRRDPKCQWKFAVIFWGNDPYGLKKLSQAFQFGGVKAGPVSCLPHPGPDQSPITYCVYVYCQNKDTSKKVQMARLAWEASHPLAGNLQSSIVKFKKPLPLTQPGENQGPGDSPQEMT
Ecoli growth = blocks Escherichia coli growth; OD600, 23 h; active compounds read low; OD600 absorbance (test concentration not listed); AID 1053175; actives 0.21% (n = 330,000);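 active = OD600 absorbance below the run mean of sample wells minus 3.6 SD, in any replicate, cut at about 0.56 in these data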;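 also: stock transfer was 300 nL into about 60 µL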
HNF4A DNA FP = change in binding of human HNF4 alpha to DNA; P41235; HNF4a-FITC DNA binding, fluorescence polarization, 1 h; activity change, % at 10 µM; actives 0.3% (n = 360,000); AID 1224865; in the data active = activity change above about 30%, passing the limit was not always enough;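 also: controls were the assay level and a saturating level of protein; the project sought stronger binding though the title names inhibitors; some compounds called inactive have numbers as strong as hits; positive values seem to mean higher polarization but the record does not say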
* marks the source's active call; other numbers are inactive results; u = inconclusive; x = no result given.

SMILES	A1 inh	B2AR ag	Vif TR-FRET	UCH37 inh	LANA-H2A inh	Ecoli growth	HNF4A DNA FP
CC(C)CC(=O)Nc1cc(NC(=O)CC(C)C)cc(C(=O)NC(C)(C)C)c1	-0.6	-2	0%	1.9	-7.3	0.79	-0.1
CCCCn1c(N)c(N(CCC(C)C)C(=O)c2ccc(COc3ccccc3)o2)c(=O)[nH]c1=O	-0.6	1	0%	-0.9	1.8	0.59	-1.4
O=C(Cc1ccccc1)Nc1ccccc1C(=O)NCC1CCCO1 (stereo unspecified)	-2.9	-10	x	-1.1	0.4	0.63	4.7
COc1ccc(NC(=O)c2cc(C)no2)cc1	-1.9	-1	-2%	1.2	12	0.66	4.4
COc1cc(CCC(=O)Nc2nnc(-c3cccnc3)s2)cc(OC)c1OC	-0.6	10	-9%	1.0	2.9	0.68	-1.2
O=C(CC(C(=O)O)P(=O)(c1ccccc1)c1ccccc1)c1ccccc1 (stereo unspecified)	1.0	4	-1%	0.5	1.1	0.69	4.6
Cc1ccsc1C(=O)Nc1cccc(-n2cnnn2)c1	-0.2	-10	x	2.1	4.1	0.65	1.6
CCOC(=O)c1ccc(NS(=O)(=O)c2cc3c(cc2C)NC(=O)CO3)cc1	-0.4	17	x	2.3	-4.8	0.68	4.7
O=C(NCCN1CCOCC1)c1ccccc1OCc1ccccc1	0.0	-9	2%	0.2	2.4	0.67	-1.0
CC(C)(C)OC(=O)NCCCCCc1nnc(SCc2c(F)cccc2Cl)o1	0.1	-17	-6%	x	14*	x	1.7
Cc1ccccc1C(=O)Nc1ccnn1C1CCN(C2CCSCC2)CC1	-0.1	-3	-2%	2.5	5.8	0.71	-8.2
CCCn1c(SCC(=O)c2c(N)n(C3CC3)c(=O)[nH]c2=O)nnc1-c1ccncc1	0.6	-1	1%	2.5	6.3	0.7	3.1
N#Cc1c(/N=C/c2cc(Br)cs2)sc2c1CCC2	-0.6	2	x	x	0.6	x	1.3
N/C(=N\NC(=O)c1ccc(F)cc1)c1cc2ccccc2oc1=O	-0.2	1	-4%	3.2	-0.5	0.66	3.4
O=C(COC(=O)c1ccco1)NCc1ccc(F)cc1	0.1	2	-7%	1.2	-6.8	0.69	1.2
Cc1c(Cl)c(C(=O)N2CCCc3ccccc32)nn1C	-1.4	-4	-2%	4.9	1.4	0.75	1.0
CC(C)Cn1c(N)c(C(=O)COC(=O)C2CC(=O)N(Cc3ccccc3Cl)C2)c(=O)n(C)c1=O (stereo unspecified)	0.1	5	-6%	-0.1	-4.5	0.68	4.1
CC1=C(C(=O)Nc2cccnc2)C(c2cccnc2)n2nc(-c3cccs3)nc2N1 (stereo unspecified)	0.3	-6	-6%	-0.3	-0.8	0.74	0.0
Cc1ccc(CNC(=O)CCc2nnc3ccc(NCCCN4CCCC4=O)nn23)cc1	-0.5	-4	-6%	0.1	-1.6	0.69	-1.5
COc1ccc(N2CCN(C(=O)c3oc4ccccc4c3NC(=O)Cc3ccc(OC)c(OC)c3)CC2)cc1	0.0	3	x	0.3	-0.6	0.65	-1.8
Cc1ccc(C(=O)N2N=C(c3ccccc3)CC2(O)C(F)(F)F)o1 (stereo unspecified)	0.5	0	u	5.8	-2.5	0.68	-0.6
CCOc1ccc(NC(=O)CN(C)C(=O)CCCOc2ccc(Cl)c(C)c2)cc1OCC	-1.6	6	x	0.8	-3.2	0.7	0.1
O=C(Nn1c(-c2ccc(Br)cc2)nc2ccccc2c1=O)c1ccncc1	0.1	0	x	4.8	-0.1	0.69	1.9
Cc1ccc(Cn2c(O)c(N=NC(=S)Nc3ccccc3F)c3ccccc32)cc1	0.4	17	-13%	7.1	2.6	0.68	0.6
C=CCOc1ccc(C(c2c(C(=O)O)[nH]c3ccccc23)c2c(C(=O)O)[nH]c3ccccc23)cc1	-0.2	-1	32%	-0.8	0.3	0.7	-19
SMILES	A1 inh	B2AR ag	Vif TR-FRET	UCH37 inh	LANA-H2A inh	Ecoli growth	HNF4A DNA FP
Cc1cc(C)c(S(=O)(=O)N2CCCC2CNC(=O)c2ccc3c(c2)OCO3)c(C)c1 (stereo unspecified)	-0.2	2	1%	0.4	-5.4	0.67	-0.4
Cc1ccc(S(=O)(=O)N2c3cc(C)ccc3OCC2C(C)(C)C)cc1 (stereo unspecified)	-0.5	0	11%	5.7	0.9	0.7	-1.8
CCOC(=O)c1sc(NC(C)=O)nc1-c1ccccc1	1.3	-6	-3%	2.2	0.9	0.69	-0.8
O=C(COc1ccccc1)NCC(c1ccco1)N1CCCCC1 (stereo unspecified)	0.3	-11	12%	-0.1	0.7	0.6	-0.5
CCc1ccc[n+](-c2[nH]c(=O)sc2/C=N/N=C(\[O-])c2cccnc2)c1	-0.7	-4	x	x	2.1	x	-5.3
O=C(O)c1ccc(SCc2ccccc2)nc1	-5.4	-2	x	2.0	-2.9	0.7	3.2
O=C(Nc1cccnc1)c1ccc(F)c(S(=O)(=O)N2CCOCC2)c1	-0.1	2	x	0.1	-2.0	0.66	7.2
CCN(CC(=O)Nc1c(F)cccc1F)C(=O)CCSc1ccc(C)cc1	-0.5	-4	-4%	4.6	-7.3	0.67	-3.2
CS(=O)(=O)Nc1cccc(C2=NN(C(=O)CCCC(=O)O)C(c3cccs3)C2)c1 (stereo unspecified)	-0.2	1	-2%	-0.3	0.8	0.67	5.6
CC(C)C[C@@H]1NC(=O)N(CCN2CCOCC2)C1=O	0.2	-2	14%	-0.5	-6.4	0.71	1.1
O=C(Nc1ccccc1C(F)(F)F)C(O)(c1ccccc1)C1CCCCC1 (stereo unspecified)	1.4	5	x	0.0	0.0	0.73	-0.8
C(#Cc1ccccc1)CN1CCOCC1	-0.7	0	16%	1.8	-2.9	0.64	4.5
COc1ccc(Cl)cc1NC(=O)CCS(=O)(=O)c1cc2c(cc1C)NC(=O)CO2	0.0	-1	x	1.9	4.4	0.75	3.0
C/C(=N\OC(=O)c1cccc(Cl)c1)c1sc(C)nc1C	0.6	-10	1%	x	0.4	x	2.3
CCOC(=O)c1nnc(-c2ccc(C)cc2)nc1Oc1ccc(Cl)cc1Cl	0.4	17	2%	4.1	3.8	0.69	2.5
Cc1occc1C(=O)NCc1nc(-c2ccccc2)no1	-0.6	-1	x	-1.8	7.5	0.7	-0.6
CS(=O)(=O)N(Cc1ccccc1)c1ccc(C(=O)NC2CCCCC2O)cc1 (stereo unspecified)	-0.1	0	0%	4.9	-2.2	0.71	-3.8
COc1ccc(C)cc1NC(=O)C1CCN(C(=O)c2ccco2)CC1	0.3	2	x	2.0	0.9	0.68	0.3
COc1ccc(OC)c(/C=C/C(=O)OCC(=O)N2CCN(S(=O)(=O)c3ccc(C)cc3C)CC2)c1	x	-1	1%	-260	x	0.69	-0.5
CCOC(=O)Cc1nnc(Nc2cccc(O)c2)c2ccccc12	0.8	-2	8%	2.3	2.1	0.69	-1.6
Cc1cccc(NC(=O)COc2ccc3c(c2)CCC3)n1	x	5	3%	1.0	x	0.67	-1.6
CCN(CC)c1nc(C#N)nc(N(CC)CC)n1	x	15	-5%	5.2	x	0.71	0.1
CCc1nnc(NC(=O)CSc2nnc(-c3cccnc3)n2C)s1	0.0	0	-11%	3.6	5.5	0.71	-0.8
COc1ccc(C2CC(c3ccccc3)=NN2C(=S)Nc2ccccc2)cc1 (stereo unspecified)	1.9	-8	-31%	4.0	-2.9	0.75	2.4
O=c1[nH]nc(SCc2nc3ccccc3s2)n1C1CC1	-2.3	4	-9%	-2.0	5.9	0.64	-0.3
SMILES	A1 inh	B2AR ag	Vif TR-FRET	UCH37 inh	LANA-H2A inh	Ecoli growth	HNF4A DNA FP
O=C(c1cccc(S(=O)(=O)N2CCOCC2)c1)N1CCN(S(=O)(=O)c2cccs2)CC1	0.1	2	-3%	-0.9	-0.3	0.7	8.5
CC(C)(C)n1cnc2cc(NS(=O)(=O)c3ccccc3)ccc21	1.1	-2	1%	3.8	-0.3	0.76	1.3
Cc1nccn1CC(=O)N/N=C/c1cccc(O)c1	1.0	-5	3%	x	1.7	x	2.5
O=c1[nH]c2ccc([N+](=O)[O-])cc2[nH]1	x	2	-10%	8.7	x	0.63	-1.8
CCOc1ccc(N=C/C=C/c2ccccc2)c(O)c1	-3.8	21	u	6.0	1.7	0.65	-1.3
COc1ccc(-c2onc(C)c2-c2cnn(-c3ccccc3)c2)c(O)c1C	0.0	-1	x	5.4	6.3	0.71	-1.9
Cc1ccc(NC2=C/C(=N/S(=O)(=O)c3cccs3)c3ccccc3C2=O)cc1C	-0.2	5	-6%	x	8.3	x	2.8
CCn1c(C)nc2cc(C(=O)NNS(=O)(=O)c3c(F)cc(F)c(Cl)c3F)ccc21	-0.2	6	-5%	-0.6	0.1	0.7	2.2
COCCN(Cc1ccccc1)C(=O)c1cccc(S(=O)(=O)N2CCN(c3ccccc3)CC2)c1	0.9	9	-6%	3.7	-2.1	0.68	1.3
Cc1ccc(CC(=O)N2CCN(S(=O)(=O)c3ccccc3)CC2)cc1C	0.3	5	-3%	-1.3	-1.4	0.69	0.6
COc1ccc(NC(=O)NN2CCN(C)CC2)c(OC)c1	0.7	2	-2%	1.6	-0.8	0.66	3.1
CCOc1ccc(CCNC(=O)COC(=O)CCS(=O)(=O)c2ccc(C)cc2)cc1OCC	0.1	8	x	4.8	-4.8	0.68	-2.5
CCCn1c(C(=O)OC)cc2c1ccn2-c1ccc(F)cc1	-0.4	1	-2%	-3.4	-3.4	0.72	7.2
COc1ccccc1CCNC(=O)C(=O)NCC1OCCN1S(=O)(=O)c1ccccc1 (stereo unspecified)	-0.2	-4	x	3.0	-7.3	0.8	1.8
COc1ccccc1N1C(=O)C2C3C=CC(C3)C2(C)C1=O (stereo unspecified)	0.4	3	-7%	-2.0	-1.4	0.73	1.8
Nc1nc(N2CCN(C(c3ccccc3)c3ccccc3)CC2)n[nH]1	1.0	-5	-1%	4.1	5.3	0.67	3.7
O=C(CSc1nnc(NC2CC2)s1)Nc1ccc(N2CCOCC2)cc1	0.9	0	-3%	0.8	-221	0.65	2.6
CCCn1nnnc1NCc1cccc(OC)c1OCC	-0.1	9	x	4.7	-3.9	0.71	-4.1
COc1ccc(CNC(=S)N/N=C(\C)c2ccc(OC)cc2)cc1	0.1	-5	-7%	x	-1.1	x	0.6
COc1ccccc1CN(C)CC(=O)Nc1cccc(S(=O)(=O)N2CCCC2)c1	0.0	-12	-2%	-0.6	-5.0	0.69	-0.5
CCOC(=O)N1CCC(N2Cc3cccc(C(=O)NCc4ccc(C)cc4)c3C2=O)CC1	x	-6	-3%	4.2	3.7	0.78	2.9
CCCc1cc(=O)[nH]c(SCC(=O)Nc2sc(C(N)=O)c(C)c2C(=O)OCCOC)n1	-0.4	0	-13%	2.2	-1.2	0.68	-0.1
O=C(NCCCN1CCOCC1)c1ccc(S(=O)(=O)Nc2ccccc2F)cc1	0.1	2	2%	4.5	-2.4	0.69	2.2
COc1ccccc1NC(C)C(=O)N/N=C/c1cccs1 (stereo unspecified)	0.1	-3	8%	x	-3.1	x	2.2
O=C(Nc1cc([N+](=O)[O-])ccc1F)c1ccc2c(c1)OCCO2	-2.7	-3	4%	2.7	-2.3	0.69	-0.1
c1ccc2[nH]c(NCCN3CCOCC3)nc2c1	0.8	-8	2%	3.2	1.1	0.78	-1.5
Cc1onc(-c2ccccc2)c1C(=O)Nc1nnc(CC(C)(C)C)s1	0.8	4	x	3.0	-3.9	0.66	-1.1
